NS1 function inh = blocks influenza NS1 protein function. Potency, µM (top dose mostly 46.1 µM), for the others: at the top dose activity, positive = more growth. AID 2326. S. cerevisiae slowed by influenza A NS1, growth recovery by OD600. 0.4% of 270,000 active; active means well fitted rising curve with a large enough effect; inconclusive means small, poorly fitted or top-dose-only effect; inactive means no such curve, though single readings can be large or run the other way; also: nearly all actives have a fitted effect of over 50% in size
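S. cerevisiae expressing influenza A NS1, grown in glucose, washed, then diluted 1:100 into pH 6.0 -URA galactose medium with 23 nl compound. Growth recovery read as OD600; NS1-free strain serves as control.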
RE007 growth inh = less growth of the S. pombe RE007 Vpr strain; 0.21% of 360,000 active; AID 651644; Potency, µM (doses to about 92.2 µM), without a hit: at the highest dose activity change, negative = less growth; S. pombe RE007 Vpr strain, BacTiter-Glo ATP luminescence, 24 h; control for the full effect not named in the record; active = well fitted falling curve with a large enough effect; inconclusive = small, poorly fitted or top-dose-only effect; inactive = no such curve, though single readings can be large or run the other way;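 also: % is scaled to controls: 0 for no effect and ±100 for the full control effect; nearly all actives have a fitted effect of over 50% in size; the assay follows cell death caused by Vpr and the record does not say whether a fall means rescue or toxicity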
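Fission yeast strain RE007, carrying one chromosomally integrated HIV-1 vpr copy, was seeded at OD 0.01 in PMG+AL medium with 23 nL pinned compound. After 24 h at 30 °C and 99% humidity, viability was read by BacTiter-Glo luminescence.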
Cruzain Triton = cruzain (T. cruzi) inhibition with detergent; P25779; purified cruzain, Z-FR-AMC fluorescence, 0.01% Triton; Potency, µM, without a hit: max response, negative = inhibition, hits mostly inhibitors; 0.43% of 200,000 active; AID 1478;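 also: plate controls were neutral wells for no effect and buffer without enzyme for full effect; nearly all actives have a fitted effect of over 40% in size; top concentration of the series not given in the record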
Target sequence (P25779 123-467 limits assumed): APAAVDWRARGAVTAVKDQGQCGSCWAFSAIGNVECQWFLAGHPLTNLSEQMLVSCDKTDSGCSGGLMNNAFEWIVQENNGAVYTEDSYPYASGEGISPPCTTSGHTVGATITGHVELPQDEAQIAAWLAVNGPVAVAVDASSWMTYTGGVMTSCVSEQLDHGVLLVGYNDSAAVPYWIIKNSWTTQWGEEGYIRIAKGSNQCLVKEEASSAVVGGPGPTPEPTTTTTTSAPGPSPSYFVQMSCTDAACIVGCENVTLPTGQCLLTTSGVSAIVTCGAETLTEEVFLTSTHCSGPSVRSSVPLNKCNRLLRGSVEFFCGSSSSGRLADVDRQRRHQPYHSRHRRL
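Detergent-containing arm of a paired screen for aggregation-based inhibition: 0.01% Triton X-100 present. Cruzain at 1.5 nM cleaved 2 uM Z-FR-AMC at pH 5.5 with 5 mM DTT; AMC fluorescence gain over 60 s measured activity.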
Cruzain inh noDet = inhibitors of Trypanosoma cruzi cruzain without detergent. purified cruzain, Z-FR-AMC fluorescence, no detergent. Potency, µM, inactives show max response, negative = inhibition, usual class: inhibitors. 2.3% of 200,000 active;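 also: plate controls were enzyme without inhibitor for no effect and buffer without enzyme for full effect; nearly all actives have a fitted effect of over 40% in size; top concentration of the series not given in the record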
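Purified cruzain at 1.5 nM, pre-incubated 15 min with compound at room temperature in 100 mM sodium acetate pH 5.5, 5 mM DTT, 0.00005% Triton X-100. Reaction started with 2 uM Z-FR-AMC; AMC fluorescence increase over 60 s gives rate.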
StopGo reporter = FMDV 2A StopGo reporter, luciferase signal. human cells with a luciferase reporter of 2A StopGo recoding; control for the full effect not named in the record. Potency, µM (highest dose often 57.9 µM), for the others: at the top dose signal change, negative = less light. 1.2% of 410,000 active. AID 1159524; active = well fitted falling curve with a large enough effect; inconclusive = small, poorly fitted or top-dose-only effect; inactive = no such curve, though single readings can be large or run the other way; tested in HEK293T cells; also: % is scaled to controls: 0 for no effect and ±100 for the full control effect; nearly all actives have a fitted effect of over 45% in size; luciferase light after 4 h
Lassa entry inh = Lassa virus entry inhibition; Lassa virus pseudotype entry inhibition, cell reporter; control for the full effect not named in the record; Potency, µM (titrated, usually from 37.9 µM), for the others: at the highest dose activity change, negative = inhibition, hits mostly inhibitors; 1.2% of 300,000 active; AID 540256; active means well fitted inhibition curve with a large enough effect; inconclusive means small, poorly fitted or top-dose-only effect, or effect the other way; inactive means flat fitted curve, though single readings scatter; tested in HEK293 cells; also: % is scaled to controls: 0 for no effect and ±100 for the full control effect; nearly all actives have a fitted effect of over 50% in size; luciferase read-out
MARV entry inh = blocks Marburg virus binding to or entry into cells. Marburg virus pseudotyped entry inhibition, cell reporter; control for the full effect not named in the record; about a third of the inactives were read at about 46 µM. Potency, µM (doses to about 37.8 µM), without a hit: top-dose activity change, negative = inhibition, usual class: inhibitors. 1.8% of 300,000 active. AID 540276; active = well fitted inhibition curve with a large enough effect; inconclusive = small, poorly fitted or top-dose-only effect, or effect the other way; inactive = flat fitted curve, though single readings scatter; tested in HEK293 cells; about a fifth of its hits are not listed in these tables; also: % is scaled to controls: 0 for no effect and ±100 for the full control effect; luciferase read-out
SARS PLP yeast = inhibitors of SARS-CoV papain-like protease in yeast; S. cerevisiae expressing SARS-CoV PLpro, growth rescue; control for the full effect not named in the record; Potency, µM (titrated, usually from 32.9 µM), for inactives: at the highest dose activity, positive = growth rescue; 0.19% of 330,000 active; AID 485353; active means well fitted rising curve with a large enough effect; inconclusive means small, poorly fitted or top-dose-only effect; inactive means no such curve, though single readings can be large or run the other way; also: 0% is about no effect; nearly all actives have a fitted effect of over 55% in size; growth read by luminescence after 48 h
* marks the source's active call; other numbers are inactive results; u = inconclusive; x = no result given; [ ] = another dose, or the depositor's remark. Unless noted, calls follow the shape of the dose curve; as a rule, active = well fitted curve in the direction sought with a large enough effect; inconclusive = small, poorly fitted or top-dose-only effect, or another doubt; inactive = no such curve, though single readings can be large; an effect the other way counts as inactive or inconclusive. Potency is read from the fitted curve at half-maximal effect.

compound	MARV entry inh	StopGo reporter	NS1 function inh	SARS PLP yeast	RE007 growth inh	Lassa entry inh	Cruzain Triton	Cruzain inh noDet
CCC(C)NC(=O)c1cc2cc(S(=O)(=O)N3CCCCC3)ccc2n1C (stereo not drawn)	x	u	x	x	x	-9%[46.1 µM]	-2.4%	3%
Cc1cc(C)c(C)c(S(=O)(=O)N[C@@H](C)C(=O)OCC(N)=O)c1C	1%	9%	x	1%	-14%	6%	x	x
O=P(O)(CN1CCCCCC1)CN1CCCCCC1	4%	x	8%	2%	x	x	-0.9%	-2%
Cc1nc2sc(C(=O)OCC(=O)N3c4ccccc4CC3C)c(C)c2c(=O)[nH]1 (stereo not drawn)	14%	9%	x	1%	-12%	u	x	x
COc1ccc(C(=O)NCCCn2ccnc2)cc1[N+](=O)[O-]	x	8%	-6%	3%	-10%	x	x	x
Cc1[nH]c(C)c(S(=O)(=O)N2CCCCC2C)c1C(=O)N1CCCC1 (stereo not drawn)	x	-12%	5%	1%	-2%	x	x	x
CC(=O)Nc1ccc(NC(=O)CCCSc2nc3ccccc3s2)cc1	1%	16%	12%	-4%	-14%	22%	x	x
Cc1ccc(CN(c2ccc(C(=O)Nc3ccc4c(c3)OCO4)cc2)S(C)(=O)=O)cc1	19%	-7%	6%	-2%	-9%	-39%[14.3 µM]	-1.9%	u
Cc1ccccc1Cn1c(=O)n(Cc2ccco2)c(=O)c2ccccc21	20%	-23%	-8%	1%	26%	-10%	-5.0%	-24%
CC(=O)N1Cc2ccccc2CC1C(=O)OCC(=O)c1c(N)n(C)c(=O)n(C)c1=O (stereo not drawn)	12%	-14%	x	1%	5%	u	x	x
c1ccc2c(CN3CCCCCC3)c[nH]c2c1	u	0%	-37%	-2%	1%	-15%	x	x
COCCNC(=O)CN(C(=O)CCC(=O)Nc1ccccn1)c1ccc(F)c(Cl)c1	4%	x	-6%	-5%	x	x	2.4%	11%
CCOC(=O)C1=C(O)/C(=C/c2ccc(OCC(=O)O)c(OCC)c2)SC1=Nc1ccccc1	u	u	4%	-1%	3%	u	x	x
O=C(c1ccc2c(c1)OCO2)N1CCN(S(=O)(=O)c2ccccc2)CC1	14%	-19%	8%	-3%	5%	8%	x	x
CCOC(=O)c1[nH]c(=S)[nH]c1C	3%[46.1 µM]	0%	x	x	-6%	-13%[46.1 µM]	x	x
COc1cccc(N2C(=NC(=O)CCc3ccccc3)SC3CS(=O)(=O)CC32)c1 (stereo not drawn)	x	7%	6%	2%	3%	x	x	x
CC(C)c1ccc(NC(=O)N2CCC(c3nc4ccccc4o3)CC2)cc1	-13%	-27%	-17%	-2%	-16%	-10%	-2.4%	5%
O=[N+]([O-])c1ccc(NN=Cc2ccccc2O)nc1	u	65%[activator]	x	x	-14%	u	x	x
COC(=O)[C@@H](NC(=O)Nc1ccc(C(C)=O)cc1)C(C)C	-5%	-7%	10%	-3%	-12%	-7%	2.9%	-13%
CCOc1ccccc1N1CCN(C(=O)c2c(CC)noc2C)CC1	15%	-17%	x	-2%	-4%	-1%	x	x
CCCCOc1ccc(NC(=O)C2CC=CCC2C(=O)O)cc1 (stereo not drawn)	12%	x	2%	2%	-8%	-21%	8.5%	4%
O=C(c1ccccc1)N1CCC(=O)N1c1ccccc1	11%	-21%	-4%	10%	25%	8%	-1.5%	-12%
Cc1nn(-c2ccccc2)c(C)c1/C=N/NC(=O)c1ccccc1NS(=O)(=O)c1cccs1	5%	-17%	-8%	10%	-5%	6%	-17%	10%
Cc1ccc(OCC(=O)N(C)Cc2ccccc2)c([N+](=O)[O-])n1	u	-18%	4%	-22%	2%	14%	-2.3%	11%
Cc1ccc(C(=O)Nc2onc3c2CCCC3)cc1	x	8.9µM*	x	x	x	u	-3.6%	-7%
O=C(CCSc1ccccc1)Nc1ccccc1Br	-1%[46.1 µM]	-3%	x	-1%	-19%	-27%[46.1 µM]	x	x
O=C(Cn1c(=O)n(Cc2ccc(F)cc2)c(=O)c2sc3ccccc3c21)NCc1ccccc1	-13%[46.1 µM]	-26%	x	x	x	3%[46.1 µM]	0.5%	u
O=C(NNc1ccccn1)c1ccc(Cl)nc1	2%[46.1 µM]	-8%	u	13%	3%	3%	3.1%	-15%
COc1ccc(Cl)c(Cn2c(NCCCN(C)C)nc3c2c(=O)n(C)c(=O)n3C)c1	-16%	-20%	8%	3%	3%	u	-4.0%	-15%
S=c1[nH]ncn1-c1ccccn1	27%	-8%	8%	-4%	9%	-3%	3.1%	1%
COc1cc([N+](=O)[O-])cc(/C=N/N(CCC#N)C(C)=O)c1O	12%[46.1 µM]	0%	3%	-1%	15%	5%[46.1 µM]	x	x
O=C(CNC(=O)c1ccccc1)OCc1cccc(Br)c1	10%[46.1 µM]	-9%	-8%	-1%	-4%	3%	x	x
COc1cc(NC(=O)CN2CCN(c3ccccn3)CC2)cc(OC)c1OC	-7%[46.1 µM]	-5%	9%	1%	-10%	u	x	x
CCOc1ccc(CCNC(=O)Nc2ccccc2C)cc1OCC	x	-7%	-5%	1%	-1%	x	x	x
Cc1ccc2nc(N3CCN(S(=O)(=O)c4ccc(C)c(Cl)c4)CC3)c(C#N)cc2c1	4.6µM*	1%	4%	-18%	15%	u	-2.6%	u
Cc1cc(C)nc(N2CCN(C(=O)CCC(=O)Nc3nnc(CC(C)C)s3)CC2)n1	12%[46.1 µM]	-1%	-3%	0%	-7%	-8%[46.1 µM]	x	x
Cc1ccc(C)c(NC(=S)NCCc2c[nH]c3ccccc23)c1	u	2%	-5%	-1%	8%	u	x	x
Cc1ccc(-c2nc3ccccc3o2)cc1NC(=S)NC(=O)/C=C/c1ccco1	-15%	0%	22%	1%	0%	u	-1.9%	u
Cc1cc(OCC(=O)N(C)Cc2ccccc2)cc(C)c1Cl	-12%	-2%	-17%	-3%	7%	-26%	x	x
CCOC(=O)CSc1nnc(NC(=O)c2cccc(S(=O)(=O)N3CCCC3)c2)s1	9%	x	6%	-1%	0%	-17%	2.9%	u
CS(=O)(=O)N1CCC(C(=O)Nc2cccc(Br)c2)CC1	-18%	-18%	-12%	19%	0%	20%	x	x
COc1ccc(N(CC(=O)NCC2CCCO2)C(=O)CCC(=O)Nc2cc(C)on2)cc1OC (stereo not drawn)	u	-2%	2%	2%	-8%	-6%[46.1 µM]	x	x
CCOc1ccc(CN2C(=O)CC(=O)N(S(=O)(=O)c3ccc(OCC)cc3)C2=O)cc1	13%[46.1 µM]	9%	3%	0%	20%	-30%	x	x
O=C(O)c1sccc1SCc1ccc(Cl)c(Cl)c1	28%	18%	-71%	-2%	13%	2%	-6.7%	-4%
COc1ccc(OC)c(CCNC(=O)c2ccc3[nH]c(C)c(C)c3c2)c1	x	-19%	x	x	x	u	-16%	10%
O=C(COc1ccc2ccccc2c1CN1CCOCC1)N1CCc2ccccc21	u	u	-12%	5%	-4%	u	-12%	u
COc1cccc(N2CCN(c3c4c(nc5nncn35)CCC4)CC2)c1	u	u	x	x	x	-21%[46.1 µM]	-2.5%	11%
O=C1C=C(Nc2ccc(Cl)cc2Cl)CC(c2ccco2)C1 (stereo not drawn)	u	-5%	x	-17%	-2%	u	x	x
CCOC(=O)c1c(C)[nH]c(C(=O)OCC(=O)N2CC(C)OC(C)C2)c1C (stereo not drawn)	0%	-9%	-4%	0%	-2%	-3%	2.8%	15%
CCc1cccc(C)c1NC(=O)c1cccc(C(=O)Nc2c(C)cccc2CC)c1	x	-15%	x	x	x	-27%[46.1 µM]	-1.9%	-5%
CCC/C(O)=C1\C(=O)CCCC1=NCCc1c(C)[nH]c2ccc(OC)cc12	9%[46.1 µM]	-16%	x	2%	1%	-21%[46.1 µM]	x	x
CCOC(=O)c1c(NC(=S)Nc2ccccc2)sc2c1CCN(C)C2	-2%	-4%	-10%	-4%	-12%	5%	-6.8%	3%
CCCNc1ncnc2sc(C)c(C)c12	-23%	u	-2%	-1%	-21%	-4%	4.4%	0%
O=C(NCCOc1ccccc1)c1ccccc1NC(=O)C1CCCO1 (stereo not drawn)	u	43%[activator]	x	1%	-11%	x	x	x
CCN(CC)S(=O)(=O)c1ccc2c(c1)nc(CN(C)C(=O)c1cccc(Cl)c1)n2C	x	-1%	x	x	x	-2%[46.1 µM]	1.4%	-6%
COc1cccc(NC(=S)NNC(=O)Cn2nc([N+](=O)[O-])cc2C)c1	u	5%	2%	0%	29%	u	x	x
O=C(COc1ccccc1)N(Cc1ccccc1)c1nc(-c2ccccc2)cs1	u	-15%	4%	-3%	-9%	1%	5.8%	u
CC(=O)NNC(=O)c1cc2c3ccccc3n(C)c2s1	x	-9%	0%	1%	-4%	x	x	x
O=C(C1=C(O)C(=O)N(c2ncccn2)C1c1ccc(Cl)cc1)c1ccco1 (stereo not drawn)	0%[46.1 µM]	-10%	-14%	2%	-11%	19%	-3.8%	-14%
C=C(C)CSc1nnc(CCCCCNC(=O)OC(C)(C)C)o1	x	-25%	1%	4%	-1%	x	x	x
CCN(CC)S(=O)(=O)c1ccc2c(c1)nc(SCC(N)=O)n2-c1ccc(OC)cc1	-10%	-28%	1%	-2%	18%	13µM*	5.2%	u
COc1cc(CCC(=O)N2CCN(S(=O)(=O)c3ccc(C)cc3)CC2)cc(OC)c1OC	5%	-27%	x	-6%	13%	3%	x	x

Screens from PubChem BioAssay.
